S1P4 ag – human S1P4 receptor agonism; O95977; S1P4-expressing cell line, agonist reporter assay; activation, % at 4.98 µM; 0.35% of 220,000 active; AID 1509; in the data active = activation above about 11%;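 also: 0% = DMSO vehicle and 100% = reference agonist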
Target sequence (O95977 whole entry, looked up): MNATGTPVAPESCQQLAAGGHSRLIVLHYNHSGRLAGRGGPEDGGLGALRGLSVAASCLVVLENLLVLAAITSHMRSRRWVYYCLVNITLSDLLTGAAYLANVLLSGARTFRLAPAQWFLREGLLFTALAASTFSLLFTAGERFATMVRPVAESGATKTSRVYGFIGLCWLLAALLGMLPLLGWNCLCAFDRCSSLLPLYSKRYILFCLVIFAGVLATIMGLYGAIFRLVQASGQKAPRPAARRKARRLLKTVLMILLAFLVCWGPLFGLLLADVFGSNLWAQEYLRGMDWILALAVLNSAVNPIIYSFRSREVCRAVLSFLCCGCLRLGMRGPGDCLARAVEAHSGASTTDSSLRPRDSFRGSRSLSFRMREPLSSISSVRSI
RBBP9 inh – blocks human serine hydrolase RBBP9. O75884. recombinant RBBP9, FP-Rh probe fluorescence polarization. inhibition, % at 7.94 µM. 0.2% of 220,000 active;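 active = inhibition above the campaign mean of all tested compounds plus 3 SD, cut at about 14% in these data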;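 also: plate controls were DMSO wells with RBBP9 for no effect and wells lacking RBBP9 protein for full effect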
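Test system – recombinant human RBBP9 · Input – RBBP9 2.5 µM in dispensing solution, pre-mixing · Medium – Tris buffer pH 8.0, NaCl, Pluronic · Schedule – preincubation 30 min plus labeling 45 min at 25 °C · Measured by – fluorescence polarization · Measure – % inhibition · Controls – DMSO and no-protein wells · Replicates – one well per compound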
S1P4 antag – human S1P4 receptor antagonism | O95977 | S1P4-expressing cells, antagonist mode, reporter read-out | inhibition, % at 4.98 µM | 0.26% of 220,000 active | AID 1510; in the data active = inhibition above about 29%;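 also: 0% = wells stimulated with agonist and 100% = vehicle wells without agonist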
Ba/F3 V617F tox – lowers viability of Ba/F3 cells expressing EpoR and JAK2V617F. 1.1% of 220,000 active. ATP luminescence. inhibition, % at 5.6 µM;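 active = inhibition above the campaign mean plus 3 SD over all tested compounds, cut at about 24% in these data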;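 also: cytokine-independent growth of Ba/F3 cells driven by EpoR plus mutant JAK2; 0% = DMSO-treated cells and 100% = JAK inhibitor I control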
BaF3 tox – parental Ba/F3 viability inhibition as JAK2V617F counter-screen; 1.1% of 220,000 active; inhibition, % at 5.6 µM; CellTiter-Glo ATP luminescence;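 active = inhibition above a per-campaign cutoff, the mean inhibition of all tested compounds plus 3 SD, cut at about 27% in these data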;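 also: 0% = DMSO wells and 100% = JAK Inhibitor I control wells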
Active calls of the source: *; & = joins results of further samples. Not all compounds are listed (hit frequency here may not be typical).

Sample of the layout (7 entries):
Screens by letter: A = S1P4 ag; B = RBBP9 inh; C = S1P4 antag; D = Ba/F3 V617F tox; E = BaF3 tox
1) CC(C)c1nc(CN(C)C(=O)N[C@H](C(=O)N[C@@H](Cc2ccccc2)C[C@H](O)[C@H](Cc2ccccc2)NC(=O)OCc2cncs2)C(C)C)cs1
  A = 1.0 | B = 1 | C = -2 | D = 0 | E = -5

2) CC(C)Oc1ccc2c(=O)c(-c3ccccc3)coc2c1
  A = -0.5&0.6 | B = 6&-3 | C = -4&19 | D = 1&-4 | E = 6&-5

3) CN1CCN(CCCN2c3ccccc3Sc3ccc(C(F)(F)F)cc32)CC1
  A = 1.2&1.3 | B = -5&-1 | C = -10&-8 | D = 2&5 | E = 12&-3

4) C=C(CC)C(=O)c1ccc(OCC(=O)O)c(Cl)c1Cl
  A = 1.9 | B = -10 | C = -11 | D = 1 | E = 7

5) Nc1ncnc2c1ncn2C1OC(CO)C(O)C1O (stereo not given)
  A = -1.9 | B = -2 | C = 39* | D = -4 | E = 4

6) CN(C)CCC(c1ccc(Br)cc1)c1ccccn1 (stereo not given)
  A = 1.6 | B = -5 | C = -19 | D = -5 | E = 2

7) CN(C)CC/C=C1\c2ccccc2Sc2ccc(Cl)cc21
  A = 0.0 | B = 1 | C = 0 | D = -2 | E = 8

The listing, previewed entries included:
Screens by letter: A = S1P4 ag; B = RBBP9 inh; C = S1P4 antag; D = Ba/F3 V617F tox; E = BaF3 tox
1) CC(C)c1nc(CN(C)C(=O)N[C@H](C(=O)N[C@@H](Cc2ccccc2)C[C@H](O)[C@H](Cc2ccccc2)NC(=O)OCc2cncs2)C(C)C)cs1
  A = 1.0 | B = 1 | C = -2 | D = 0 | E = -5

2) CC(C)Oc1ccc2c(=O)c(-c3ccccc3)coc2c1
  A = -0.5&0.6 | B = 6&-3 | C = -4&19 | D = 1&-4 | E = 6&-5

3) CN1CCN(CCCN2c3ccccc3Sc3ccc(C(F)(F)F)cc32)CC1
  A = 1.2&1.3 | B = -5&-1 | C = -10&-8 | D = 2&5 | E = 12&-3

4) C=C(CC)C(=O)c1ccc(OCC(=O)O)c(Cl)c1Cl
  A = 1.9 | B = -10 | C = -11 | D = 1 | E = 7

5) Nc1ncnc2c1ncn2C1OC(CO)C(O)C1O (stereo not given)
  A = -1.9 | B = -2 | C = 39* | D = -4 | E = 4

6) CN(C)CCC(c1ccc(Br)cc1)c1ccccn1 (stereo not given)
  A = 1.6 | B = -5 | C = -19 | D = -5 | E = 2

7) CN(C)CC/C=C1\c2ccccc2Sc2ccc(Cl)cc21
  A = 0.0 | B = 1 | C = 0 | D = -2 | E = 8

8) CC1=NS(=O)(=O)c2cc(Cl)ccc2N1
  A = 0.6 | B = -1 | C = -13 | D = 8 | E = 7

9) OCCOCCN1CCN(C2=Nc3ccccc3Sc3ccccc32)CC1
  A = -0.5 | B = 3 | C = 2 | D = 0 | E = 1

10) O=C1CCc2ccc(OCCCCN3CCN(c4cccc(Cl)c4Cl)CC3)cc2N1
  A = -0.1 | B = 2 | C = -6 | D = 2 | E = -2

11) CO[C@H]1C=CO[C@@]2(C)Oc3c(C)c(O)c4c(O)c(c5c(nc6cc(C)ccn65)c4c3C2=O)NC(=O)C(C)=CC=C[C@H](C)[C@H](O)[C@@H](C)[C@@H](O)[C@@H](C)[C@H](OC(C)=O)[C@@H]1C
  A = 0.5 | B = 7 | C = 18 | D = 4 | E = -8

12) CCCC(=O)Nc1ncnc2c1ncn2[C@@H]1O[C@@H]2COP(=O)(O)O[C@H]2[C@H]1OC(=O)CCC
  A = -0.2 | B = 7 | C = 5 | D = 6 | E = 11

13) CC(C)[C@H](NC(=O)[C@H](CC(=O)O)NC(=O)[C@H](CCCCN)NC(=O)[C@@H](N)CCCN=C(N)N)C(=O)N[C@@H](Cc1ccc(O)cc1)C(=O)O
  A = 1.4 | B = -1 | C = -28 | D = -4 | E = 4

14) CN(C)CC/C=C1/c2ccccc2COc2ccccc21
  A = 1.1 | B = -9 | C = 15 | D = -2 | E = -4

15) CC(=O)CC(c1ccc([N+](=O)[O-])cc1)c1c(O)c2ccccc2oc1=O (stereo not given)
  A = -2.2 | B = -7 | C = 9 | D = -2 | E = 0

16) Nc1ccc(S(=O)(=O)Nc2ccccn2)cc1
  A = 3.5 | B = -7 | C = -11 | D = -4 | E = -1

17) CC(C)NCC(O)c1ccc(NS(C)(=O)=O)cc1 (stereo not given)
  A = 0.5 | B = -7 | C = 8 | D = 0 | E = -7

Assay outcomes (PubChem)
